# Bioassay records deposited in PubChem by National Center for Advancing Translational Sciences (NCATS).
# Cruzain Triton = qHTS Assay for Promiscuous and Specific Inhibitors of Cruzain (with detergent). Potency, µM, for inactives: max response, negative = inhibition, actives largely listed as inhibitors. purified cruzain, Z-FR-AMC fluorescence, 0.01% Triton. Cruzipain (Trypanosoma cruzi), P25779. actives 0.43% (n = 200,000); active = well fitted curve in the direction sought with a large enough effect; inconclusive = small, poorly fitted or top-dose-only effect, or another doubt; inactive = no such curve, though single readings can be large; an effect the other way counts as inactive or inconclusive;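 note: plate controls were neutral wells for no effect and buffer without enzyme for full effect; nearly all actives have a fitted effect of over 40% in size; top concentration of the series not given in the record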
# Target sequence (P25779 123-467 limits assumed): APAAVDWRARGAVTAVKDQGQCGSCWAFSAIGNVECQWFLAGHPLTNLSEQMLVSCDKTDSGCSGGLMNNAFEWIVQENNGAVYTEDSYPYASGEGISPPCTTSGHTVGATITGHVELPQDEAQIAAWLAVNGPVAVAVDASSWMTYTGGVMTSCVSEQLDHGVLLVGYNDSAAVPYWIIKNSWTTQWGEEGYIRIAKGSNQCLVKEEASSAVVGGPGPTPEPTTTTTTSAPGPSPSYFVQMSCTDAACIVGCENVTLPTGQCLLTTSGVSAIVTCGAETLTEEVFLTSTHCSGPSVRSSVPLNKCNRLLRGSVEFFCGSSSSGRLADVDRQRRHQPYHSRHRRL
#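 Detergent-containing run (0.01% Triton X-100) in acetate buffer pH 5.5 with 5 mM DTT: enzyme at 1.5 nM final, 15 min compound preincubation at room temperature, then 2 uM Z-FR-AMC substrate. Activity taken as 60 s fluorescence increase at 360/450 nm.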
# LASV entry inh = qHTS for Inhibitors of binding or entry into cells for Lassa Virus | Lassa virus pseudotype entry inhibition, cell reporter; control for the full effect not named in the record | Potency, µM (series often up to 37.9 µM), for inactives: top-dose activity change, negative = inhibition, hits mostly inhibitors | actives 1.2% (n = 300,000) | AID 540256, 2011; active means well fitted inhibition curve with a large enough effect; inconclusive means small, poorly fitted or top-dose-only effect, or effect the other way; inactive means flat fitted curve, though single readings scatter; tested in HEK293 cells; note: % is set by controls: 0 for no effect and ±100 for the full control effect; nearly all actives have a fitted effect of over 50% in size; luciferase read-out
# 2A StopGo = High Throughput Screening for Foot and Mouth Disease Virus Antivirals; human cells with a luciferase reporter of 2A StopGo recoding; control for the full effect not named in the record; actives 1.2% (n = 410,000); Potency, µM (series often up to 57.9 µM), without a hit: at the top dose signal change, negative = less light; active = well fitted falling curve with a large enough effect; inconclusive = small, poorly fitted or top-dose-only effect; inactive = no such curve, though single readings can be large or run the other way; tested in HEK293T cells; note: % is set by controls: 0 for no effect and ±100 for the full control effect; nearly all actives have a fitted effect of over 45% in size; luciferase light after 4 h
# Marburg entry inh = qHTS for inhibitors of binding or entry into cells for Marburg Virus. Marburg virus pseudotyped entry inhibition, cell reporter; control for the full effect not named in the record; about a third of the inactives were read at about 46 µM. Potency, µM (doses to about 37.8 µM), without a hit: top-dose activity change, negative = inhibition, hits mostly inhibitors. actives 1.8% (n = 300,000); active = well fitted inhibition curve with a large enough effect; inconclusive = small, poorly fitted or top-dose-only effect, or effect the other way; inactive = flat fitted curve, though single readings scatter; tested in HEK293 cells; about a fifth of its hits are not listed in these tables; note: % is set by controls: 0 for no effect and ±100 for the full control effect; luciferase read-out
# NS1 inh = qHTS Assay for Inhibitors of Influenza NS1 Protein Function; S. cerevisiae slowed by influenza A NS1, growth recovery by OD600; Potency, µM (top dose mostly 46.1 µM), for the others: at the highest dose activity, positive = more growth; actives 0.4% (n = 270,000); note: actives are rising curves; nearly all actives have a fitted effect of over 50% in size
#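 Growth recovery, yeast-based: influenza A NS1 expressed in S. cerevisiae causes slow growth, and suppressors are detected by OD600. The parent strain without NS1 is used as positive control.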
# SARS PLP yeast = qHTS of Yeast-based Assay for SARS-CoV PLP; Potency, µM (titrated, usually from 32.9 µM), for the others: at the top dose activity, positive = growth rescue; actives 0.19% (n = 330,000); S. cerevisiae expressing SARS-CoV PLpro, growth rescue; control for the full effect not named in the record; note: 0% is about no effect; nearly all actives have a fitted effect of over 55% in size; growth read by luminescence after 48 h
# RE007 growth inh = qHTS Assay for Inhibitors of the HIV-1 protein Vpr. S. pombe RE007 Vpr strain, BacTiter-Glo ATP luminescence, 24 h; control for the full effect not named in the record. Potency, µM (highest dose often 92.2 µM), inactives show top-dose activity change, negative = less growth. actives 0.21% (n = 360,000). AID 651644, 2012; active = well fitted falling curve with a large enough effect; inconclusive = small, poorly fitted or top-dose-only effect; inactive = no such curve, though single readings can be large or run the other way;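 note: % is set by controls: 0 for no effect and ±100 for the full control effect; nearly all actives have a fitted effect of over 50% in size; the assay follows cell death caused by Vpr and the record does not say whether a fall means rescue or toxicity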
#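 Fission yeast strain RE007, carrying one chromosomally integrated HIV-1 vpr copy, was seeded at OD 0.01 in PMG+AL medium with 23 nL pinned compound. After 24 h at 30 °C and 99% humidity, viability was read by BacTiter-Glo luminescence.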
# Cruzain inh noDet = qHTS Assay for Promiscuous and Specific Inhibitors of Cruzain (without detergent). Cruzipain (Trypanosoma cruzi), P25779. purified cruzain, Z-FR-AMC fluorescence, no detergent. Potency, µM, without a hit: max response, negative = inhibition, hits mostly inhibitors. actives 2.3% (n = 200,000); active = well fitted curve in the direction sought with a large enough effect; inconclusive = small, poorly fitted or top-dose-only effect, or another doubt; inactive = no such curve, though single readings can be large; an effect the other way counts as inactive or inconclusive;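 note: plate controls were enzyme without inhibitor for no effect and buffer without enzyme for full effect; nearly all actives have a fitted effect of over 40% in size; top concentration of the series not given in the record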
#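 Purified cruzain at 1.5 nM, pre-incubated 15 min with compound at room temperature in 100 mM sodium acetate pH 5.5, 5 mM DTT, 0.00005% Triton X-100. Reaction started with 2 uM Z-FR-AMC; AMC fluorescence increase over 60 s gives rate.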
# Starred values were filed as active, the others as inactive; u = inconclusive; x = no result given; [ ] = dose if it differs, or a comment. Unless noted, calls come from the whole dose curve; as a rule, active means well fitted rising curve with a large enough effect; inconclusive means small, poorly fitted or top-dose-only effect; inactive means no such curve, though single readings can be large or run the other way. Potency is the fitted concentration of half-maximal effect. The order is random. Share with any hit: about 4.7%.
SMILES,Cruzain Triton,LASV entry inh,2A StopGo,Marburg entry inh,NS1 inh,SARS PLP yeast,RE007 growth inh,Cruzain inh noDet
O=c1c2cc(NC(=S)N3CCCCCC3)ccc2nc2n1CCCCC2,x,-25%[46.1 µM],-21%,u,0%,2%,14%,x
COc1ccc(OC)c(NC(=O)c2sc3nc(Cc4ccccc4)cc(C(F)(F)F)c3c2N)c1,3.3%,-1%,-13%,0%,u,-6%,-11%,-15%
CC(C)c1ccc(/C=C2\SC(=S)N(CCC(=O)NCCCn3ccnc3)C2=O)cc1,x,u,2%,u,4%,x,-4%,x
CCOC(=O)n1c(SCC(N)=O)nc2ccccc21,7.1%,6%,0%,19%,-13%,7%,5%,5%
Cc1cc(Cl)ccc1NC(=O)C1CCCN1C(=O)c1cccs1 (stereo not given),0.3%,-11%,-11%,-2%,4%,0%,3%,-4%
CCc1ccc(NS(=O)(=O)c2ccc3[nH]cc(C(=O)NC4CCCC4)c(=O)c3c2)cc1,-16%,8%[46.1 µM],21%,u,x,x,x,-28%
COc1cccc(CNC(=O)c2cc(C)nc3ccccc23)c1,x,5%,5%,-22%[46.1 µM],-21%,8%,-11%,x
O=c1c2ccc(Cl)cc2[nH]c(=S)n1CCC1=CCCCC1,-0.7%,u,20%,5%,15%,19%,17%,20µM*
Cc1cccc(-n2c(=S)[nH]c3ccccc3c2=O)n1,x,8%,2%,6%,x,-2%,4%,x
CSc1ccc(/C=C(\C#N)C(=O)NC2CCCCC2)cc1,-1.2%,16%,4%,u,-2%,18%,-17%,2%
CN=C(C)/C(C(=O)OC)=C(/O)c1ccccc1F,x,-2%,0%,-8%,-2%,-1%,-9%,x
O=C(CNc1cc(S(=O)(=O)N2CCOCC2)ccc1N1CCOCC1)Nc1cccc(C(F)(F)F)c1,x,u,-10%,13%[46.1 µM],x,-7%,19%,x
Cc1c(C(=O)N2CC(C)OC(C)C2)[nH]c2ccc(Br)cc12 (stereo not given),x,u,22%,-13%[46.1 µM],-5%,-3%,2%,x
COc1ccccc1NC(=S)N1CCN(c2ccccn2)CC1,-1.1%,21%,-23%,-4%,-4%,1%,x,-3%
CCN1CCN(C(=O)c2nn(-c3ccc(C)cc3)c(=O)c3c2c2ccccc2n3C)CC1,1.0%,14%,5%,2%,-8%,6%,-7%,3%
COc1ccc(OC)c(CCNC(=O)c2ccc(CS(=O)(=O)c3ccc(Br)cc3)o2)c1,x,-15%[46.1 µM],-25%,u,x,-3%,-9%,x
O=C(CCNS(=O)(=O)c1ccc2c(c1)CCC(=O)N2)NCc1cccnc1,-2.0%,0%,19%,16%,5%,8%,7%,4%
COc1cccc(C2c3c(oc4ccccc4c3=O)C(=O)N2CCCN(C)C)c1OC (stereo not given),1.1%,-1%,-3%,-8%,-7%,-4%,-7%,-8%
CCN(CC)S(=O)(=O)c1cccc(C(=O)Nc2ccc(C#N)cc2)c1,-8.4%,u,25µM*,-23%,-9%,10%,1%,-3%
COc1ccc(OC(=O)c2cc3cc(Cl)ccc3oc2=O)cc1,x,2%[46.1 µM],-17%,5%[46.1 µM],20%,3%,3%,x
Nn1c(-c2ccccc2Cl)nnc1-c1ccccc1Cl,-1.3%,9%,56%[activator],-2%,-17%,-31%,-12%,-21%
Cc1nc(N2CCC(C)CC2)c2c(C)c(C(=O)Nc3ccc4c(c3)OCCO4)sc2n1,x,x,-22%,x,11%,-16%,-5%,x
COc1ccc(CC(C(=O)Nc2cccc(F)c2)c2nn[nH]n2)c(OC)c1 (stereo not given),-0.2%,4%,-9%,4%,0%,-5%,2%,-3%
CN(CC(=O)Nc1ccc(F)c(F)c1F)C(=O)C1CCCO1 (stereo not given),x,-5%,-10%,20%,x,-16%,2%,x
Fc1ccc(-c2cc3nc(-c4ccccc4)cc(N4CCN(CCN5CCOCC5)CC4)n3n2)cc1,-15%,-13%,-17%,u,-62%,2%,-12%,u
CCN1CCN(C(=O)C(=O)c2c(C)[nH]c3ccccc23)CC1,x,-3%[46.1 µM],-10%,-6%[46.1 µM],x,1%,-9%,x
CCN1CCN(C(=O)c2cc3cc([N+](=O)[O-])ccc3oc2=O)CC1,x,21%[46.1 µM],3%,10%[46.1 µM],x,1%,-4%,x
Cc1cccc2sc(N3CCN(C(=O)C4COc5ccccc5O4)CC3)nc12 (stereo not given),x,-3%,u,u,x,-12%,-5%,x
COc1ccc(C(=O)Oc2ccc(/C=N/Nc3ccc(Cl)c(C(=O)O)c3)cc2OC)cc1,x,-26%[46.1 µM],-15%,0%[46.1 µM],23%,-2%,7%,x
COc1ccc2c(C)c(CCC(=O)NC3CC3)c(=O)oc2c1C,x,x,3%,x,12%,-3%,-15%,x
CN(C)c1ccc(/C=N/NC(=S)NCc2ccco2)cc1,-10%,2.1µM*,-8%,u,5%,7%,0%,-7%
CCOc1ccc2nc(SCC(=O)NC3CC3)sc2c1,x,x,7%,x,-18%,-1%,20%,x
N#Cc1ccc(C(=O)CSc2n[nH]c(=O)n2-c2cccnc2)cc1,x,26%,-5%,u,5%,1%,-2%,x
CCOC(=O)c1[nH]c2ccc(OC)cc2c1NC(=O)CN1CCC2(CC1)OCCO2,-6.8%,-4%,-16%,18%,-8%,12%,-13%,6%
Cc1ccc(NC(=O)[C@H](Cc2ccccc2)N2Cc3ccccc3C2=O)cc1F,-0.9%,9%[46.1 µM],-9%,-4%[46.1 µM],x,x,x,6%
O=C1NC(=O)C(Cc2c[nH]c3ccccc23)N1 (stereo not given),x,4%,4%,12%[46.1 µM],-1%,0%,1%,x
COc1cccc(NC(=O)COc2ccccc2C(N)=O)c1,-1.9%,-7%,1%,u,-2%,-4%,-14%,2%
O=c1c(C(c2ccc(O)cc2)c2c(O)nc3n(c2=O)CCS3)c(O)nc2n1CCS2,0.3%,-9%,10%,4%,0%,1%,-1%,-12%
Cc1ccc(C(=O)Cn2c(N3CCOCC3)nc3c2c(=O)n(C)c(=O)n3C)cc1,-1.9%,3%,x,16%,-6%,4%,4%,-10%
Cc1nn(Cc2ccccc2)c(C)c1C=C1C(=O)NC(=S)NC1=O,-2.1%,2%,14µM*,-9%,15%,17%,20%,-15%
CN(C)c1ccc(C=C(C#N)C#N)cc1,-7.0%,16%,-15%,u,-6%,-20%,4%,3%
CCOC(=O)C1=C(C)C2C3C(=O)N(c4ccccc4C)C(=O)C3C1(C)C1C(=O)N(c3ccccc3C)C(=O)C21 (stereo not given),-2.7%,5%,-9%,5%,-6%,-1%,0%,u
Cc1cc(-c2nc3ccccc3o2)c2ccccc2n1,-5.3%,6%,-7%,-16%,-40%,-6%,-12%,22%
Cc1c(CNCCc2ccc(S(N)(=O)=O)cc2)c(C(=O)O)c(C)n1Cc1ccc(Cl)cc1,-2.0%,9%[46.1 µM],-14%,18%[46.1 µM],x,x,x,3%
O=C(COC(=O)/C=C/c1ccc(C(F)(F)F)cc1)NC1CCCC1,x,x,-19%,x,-1%,-5%,4%,x
CC(=O)C1=NOC(CNC(=O)c2c(-c3ccccc3Cl)noc2C)C1 (stereo not given),7.5%,u,-9%,20%,1%,3%,0%,2%
c1ccc2c(CN3CCOCC3)c3ccccc3c(CN3CCOCC3)c2c1,-3.2%,-14%,x,10%,-3%,4%,-9%,0%
Cn1cc(S(=O)(=O)N2CCCCCC2)cc1C(=O)NCc1ccccc1Cl,-8.3%,-17%[46.1 µM],-11%,x,x,x,x,4%
CC(C)(C)C(=O)N1CCN(c2ccc(NC(=O)c3ccc([N+](=O)[O-])o3)cc2)CC1,x,u,-8%,u,5%,1%,-11%,x
CCCn1c(NC(=O)CN2C(=O)NC3(CCCCC3)C2=O)nc2ccccc21,x,u,-13%,u,x,-7%,0%,x
# Following part
SMILES,Cruzain Triton,LASV entry inh,2A StopGo,Marburg entry inh,NS1 inh,SARS PLP yeast,RE007 growth inh,Cruzain inh noDet
CCCC(=O)Nc1nnc(CCN2CCCCC2)s1,2.0%,2%,1%,u,9%,4%,11%,-6%
Cc1ccc(S(=O)(=O)N2CCN(C(C)CC(=O)O)CC2)cc1 (stereo not given),x,x,1%,x,-1%,1%,-12%,x
CCn1nc(NC(=O)c2ccccc2)c2cc3cccc(C)c3nc21,x,u,-18%,u,2%,-1%,7%,x
CCOC(=O)N1CCN(c2nc(-c3ccccc3)c3cc(C)ccc3n2)CC1,x,x,-12%,-2%,-2%,-3%,4%,x
CCOC(=O)c1oc2cc(O)ccc2c(=O)c1-c1ccc(OC)cc1,-3.5%,6%,-22%,-12%,-16%,-6%,7%,1%
COc1cccc(C2c3c(oc4ccccc4c3=O)C(=O)N2CCCN2CCOCC2)c1OC (stereo not given),x,4%,-20%,11%[46.1 µM],15%,x,-9%,x
O=C(Nc1cccc2c1CCCC2)c1cc([N+](=O)[O-])cc([N+](=O)[O-])c1,-3.7%,2%,u,-19%,12%,13%,u,3%
COc1cc(/C=C/c2sc3ccccc3[n+]2CCCS(=O)(=O)[O-])ccc1O,x,14%,-9%,9%[46.1 µM],9%,-2%,u,x
Cc1ccc(C)c(NC(=O)c2nnn(Cc3ccccc3)c2N)c1,-6.6%,-9%,18%,-41%,-18%,-9%,-27%,6%
O=C(N/N=C/c1ccc(Cl)cc1)C(=O)N1CCCCCC1,x,u,82%[activator],-1%[46.1 µM],1%,0%,19%,x
CCC(NC(=S)NCc1ccc(F)cc1)c1ccc(C)cc1 (stereo not given),x,u,3%,10µM*,-67%,u,-11%,x
CN(C)S(=O)(=O)c1ccc(/C(O)=C2/C(=O)C(=O)N(Cc3cccnc3)C2c2ccncc2)cc1 (stereo not given),-2.1%,5%,4%,1%,-6%,10µM*,3%,-6%
CCOc1ccc(N(CC(=O)NC2CCCCC2)C(=O)CNC(=O)c2ccco2)cc1,x,9%,-5%,u,x,x,-1%,x
